GIV-Gai inh = blocks GIV peptide binding to rat Galpha-i3 | P08753 | Galpha-i3/FITC-GIV peptide fluorescence polarization, 90 min; hits give low values; scaled: aluminum fluoride 0%, vehicle 100% | percent of control (FP), % (concentration not given with the values) | hit rate 0.42% among 210,000;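 active = replicate mean at 85% of control or lower, very high polarization wells dropped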;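 note: wells of about 15 µL received 100 nL stock; the first replicate is given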
Target sequence (P08753 whole entry, looked up): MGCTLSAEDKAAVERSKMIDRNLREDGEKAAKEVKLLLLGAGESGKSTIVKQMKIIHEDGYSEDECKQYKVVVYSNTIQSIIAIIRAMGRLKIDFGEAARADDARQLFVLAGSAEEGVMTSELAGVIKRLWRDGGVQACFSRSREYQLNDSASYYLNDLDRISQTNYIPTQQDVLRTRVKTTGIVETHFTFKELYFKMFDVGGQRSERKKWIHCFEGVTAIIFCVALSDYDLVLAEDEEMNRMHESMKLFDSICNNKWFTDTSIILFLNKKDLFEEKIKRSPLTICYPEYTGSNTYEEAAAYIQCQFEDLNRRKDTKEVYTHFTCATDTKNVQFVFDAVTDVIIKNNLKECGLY
HCMV UL50-53 inh = disrupts HCMV UL50-UL53 complex binding; HTRF UL50-UL53 interaction, normalized percent inhibition; inhibition, % (no concentration beside the values); hit rate 0.15% among 190,000;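 active = both replicates at 50% or more, plus weaker picks with an unusually low signal ratio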;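 note: stock transfer was 100 nL into about 20 µL; 0% = negative control wells and 100% = wells with untagged competitor protein; inactives centre near -12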
Sa growth 42C = blocks Staphylococcus aureus growth; relative growth, % (no concentration beside the values); hit rate 0.53% among 170,000; S. aureus RN4220 growth, OD600, 20 h, 42 °C; hits give low values; AID 720641;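 active = growth at 42 °C up to 50% and 20 or more points under that at 30 °C, or under 10% at both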;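 note: 300 nL library stock went into each well; scaled to the means of positive and negative controls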
Sa growth 42C second temp = recorded beside Sa growth 42C, whose call it bears; relative growth, %; measured here: growth at 30 °C;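 optical density after 20 h as mean of two plates; 100% = untreated growth and lower means inhibition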
* marks the source's active call; other numbers are inactive results; i = inactive; nt = not tested or not shown.

SMILES | GIV-Gai inh | HCMV UL50-53 inh | Sa growth 42C | Sa growth 42C second temp
CN[C@H](CC(C)C)C(=O)N[C@H]1C(=O)N[C@@H](CC(N)=O)C(=O)N[C@H]2C(=O)N[C@H]3C(=O)N[C@H](C(=O)N[C@H](C(=O)O)c4cc(O)cc(O)c4-c4cc3ccc4O)[C@H](O)c3ccc(c(Cl)c3)Oc3cc2cc(c3O[C@@H]2O[C@H](CO)[C@@H](O)[C@H](O)[C@H]2O[C@H]2C[C@](C)(N)[C@H](O)[C@H](C)O2)Oc2ccc(cc2Cl)[C@H]1O | i | -19 | nt | nt
Cc1ccsc1C(=O)OCC(=O)N1CCc2ccccc21 | nt | -14 | 95 | 95
COc1ccc(NC(=O)C2CCCN(S(=O)(=O)c3cc(-c4noc(C)n4)sc3C)C2)c(OC)c1 (stereo not given) | 101 | -8 | nt | nt
CCN(Cc1ccccc1)C(=O)CCc1c(C)nc2c(c(C)nn2-c2ccc(C)c(C)c2)c1C | 99 | -36 | 88 | 92
CC(=O)c1ccc(NC(=O)c2ccc(NC(=O)CCS(=O)(=O)c3cccs3)cc2)cc1 | 105 | -9 | 101 | 90
CC(=O)N1N=C(c2ccc(N(C)C)cc2)CC1NC(Cc1c[nH]c2ccccc12)C(=O)O (stereo not given) | nt | -76 | 83 | 73
CNc1nc(OC)nc(N2CCOCC2)n1 | 103 | -6 | 107 | 97
O=C(NCc1noc2ccccc12)N1CCN(c2ccccc2)CC1 | 100 | nt | 106 | 82
CCn1nccc1C(=O)Nc1cc(Cl)ccc1Cl | 104 | nt | 100 | 87
CC(C)(C)C(=O)CSc1nc(N)c(C(=O)C(C)(C)C)s1 | 103 | 9 | 93 | 101
Cc1cc2n(n1)CCC(=O)N2C(C)C(=O)NCc1ccccc1 (stereo not given) | 108 | -8 | nt | nt
Cc1ccc(NCc2c(C)[nH]c3ccccc3c2=O)cc1C | 105 | -15 | 87 | 82
Cc1c(C(=O)NC2Cc3ccccc3C2)cnn1-c1ccc(F)cc1 | 102 | -25 | 109 | 86
Cc1nc(N2CCN(c3ccccn3)CC2)nc2c1C(=O)CC(C)(C)C2 | 103 | -24 | nt | nt
COc1cc(C(=O)Nc2cccc(OCc3cc(=O)n4c(C)csc4n3)c2)cc(OC)c1OC | 98 | -13 | 95 | 92
COc1ccc(NC(=O)Cn2c(SCc3ccc(F)cc3)nc3cccnc32)c(OC)c1 | 104 | nt | 115 | 92
Cc1cc(C)cc(Nc2csc(/N=C/NO)n2)c1 | nt | -7 | 110 | 90
N#CC(C#N)=Cc1ccc(OCc2ccsc2C#N)cc1 | 102 | -27 | 81 | 83
CCOc1ccc(NC(=O)[C@H](Cc2ccccc2)N2Cc3ccccc3C2=O)cc1 | 104 | -26 | 107 | 87
O=C(CSc1n[nH]c(=O)n1C1Cc2ccccc2C1)Nc1ccccc1 | 107 | 4 | 117 | 83
CCCCN(CC)S(=O)(=O)c1cccc2cccnc12 | 108 | -1 | 104 | 96
O=C(c1cc(C2CC2)on1)N1CCN(C(c2ccccc2)c2ccccc2)CC1 | 97 | -5 | 100 | 89
COc1ccc(S(=O)(=O)N2CCN(C(=O)N(C)C)C2c2ccccc2)cc1 (stereo not given) | 100 | 8 | 84 | 87
Cc1ccc2c(c1)N(C(=O)CCC(=O)NCCc1ccc(S(N)(=O)=O)cc1)CC(C)O2 (stereo not given) | 99 | -9 | nt | nt
CCSc1nnc(NC(=O)c2cc(=O)c3cc(C)c(C)cc3o2)s1 | 101 | -20 | 84 | 81
CN(C(=O)c1nc(-c2cccc(F)c2)n2c1CCCCC2)c1ccccc1 | 110 | nt | 107 | 99
COc1ccc(C(=O)Nc2ccc3nc(N4CCCCC4)cc(C)c3c2)cc1OC | 102 | -26 | 85 | 92
Cc1ccc(Cl)cc1Nc1sc(C(=O)c2ccccc2)c(N)c1S(=O)(=O)c1ccccc1 | 109 | -3 | 110 | 89
CCNc1nc(SCC(=O)OC)nc(N(C)C)n1 | 100 | -4 | 100 | 72
NC(=O)c1ccccc1NC(=O)Cn1nc(Cc2cccnc2)c2ccccc2c1=O | 101 | -21 | 105 | 92
Fc1cccc(Cl)c1CN1CCOCC1 | 99 | -14 | 99 | 79
COc1ccc(-c2nc3cc(C(C)C)ccc3o2)cc1NC(=O)c1ccc(C)c(Cl)c1 | 105 | -6 | 104 | 95
CCN1CCN(c2nnc(-n3cccc3C(=O)Nc3cccc(OC)c3)s2)CC1 | 96 | nt | 92 | 88
CCN(CC)c1ccc(NC(=O)c2cc(C)nc3c2c(C)nn3-c2cccc(F)c2)c(C)c1 | 98 | nt | 84 | 86
O=C(NCC1CCCO1)c1ccc(CN2CCc3ccccc3C2)cc1 (stereo not given) | nt | -7 | 102 | 81
COc1ccc(N/C=C/C(=O)C(C)(C)C)cc1 | 110 | -14 | 110 | 96
Cc1cccc(CNC(=O)c2ccc3oc(=O)n(Cc4ccccc4)c3c2)c1 | 106 | nt | 125 | 88
COc1cccc(CC(=O)Nc2ccc3nc(NS(C)(=O)=O)sc3c2)c1 | 100 | -33 | nt | nt
CCN=C1S/C(=C\c2ccc(C(=O)OC)cc2)C(=O)N1CC | 100 | -58 | 87 | 83
O=C(CC1SC(=Nc2ccccc2)N(c2ccccc2)C1=O)Nc1cccc(C(=O)O)c1 (stereo not given) | 109 | 27 | nt | nt
Cn1c(=O)c2ccc(C(=O)NC3CCCCC3)cc2n2c(SCC(N)=O)nnc12 | 106 | 18 | nt | nt
COc1cc(OC)c2nc(C)c3c(c2c1)CN(C(=O)Nc1ccccc1)C3 | 97 | -31 | 87 | 82
CCOC(=O)c1ccc(N2Cc3cc(C)c(C)cc3C2)cc1O | 107 | 6 | 94 | 92
O=S(=O)(Cc1ccco1)Cc1nc(-c2ccccc2)cs1 | 109 | -4 | 110 | 82
O=C(O)c1ccc(O)c(-n2c(=O)c3cc4c(=O)n(-c5cc(C(=O)O)ccc5O)c(=O)c4cc3c2=O)c1 | 106 | -11 | 107 | 63
COc1ccccc1NC(=O)c1c(C)cc(C)nc1SCC(=O)Nc1ccc(C)c(C)c1 | 102 | -11 | 110 | 88
CCOC(=O)c1cnc(=S)[nH]c1C(F)(F)F | 101 | -25 | 88 | 90
Cc1ccc(NC(=O)c2sc3nc(-c4cc5ccccc5oc4=O)[nH]c(=O)c3c2C)c(C)c1 | 25* | -9 | 82 | 90

Single values from the entries so far:
COc1ccc(C(=O)Nc2ccc3nc(N4CCCCC4)cc(C)c3c2)cc1OC | Sa growth 42C second temp = 92
Cc1cc(C)cc(Nc2csc(/N=C/NO)n2)c1 | Sa growth 42C second temp = 90

Given as tab-separated lines: part of the list above
smiles	GIV-Gai inh	HCMV UL50-53 inh	Sa growth 42C	Sa growth 42C second temp
COc1cccc(CC(=O)Nc2ccc3nc(NS(C)(=O)=O)sc3c2)c1	100	-33	nt	nt
CCN=C1S/C(=C\c2ccc(C(=O)OC)cc2)C(=O)N1CC	100	-58	87	83
O=C(CC1SC(=Nc2ccccc2)N(c2ccccc2)C1=O)Nc1cccc(C(=O)O)c1 (stereo not given)	109	27	nt	nt
Cn1c(=O)c2ccc(C(=O)NC3CCCCC3)cc2n2c(SCC(N)=O)nnc12	106	18	nt	nt
COc1cc(OC)c2nc(C)c3c(c2c1)CN(C(=O)Nc1ccccc1)C3	97	-31	87	82
CCOC(=O)c1ccc(N2Cc3cc(C)c(C)cc3C2)cc1O	107	6	94	92

The main list resumes, starting four compounds before the break.
SMILES | GIV-Gai inh | HCMV UL50-53 inh | Sa growth 42C | Sa growth 42C second temp
O=C(O)c1ccc(O)c(-n2c(=O)c3cc4c(=O)n(-c5cc(C(=O)O)ccc5O)c(=O)c4cc3c2=O)c1 | 106 | -11 | 107 | 63
COc1ccccc1NC(=O)c1c(C)cc(C)nc1SCC(=O)Nc1ccc(C)c(C)c1 | 102 | -11 | 110 | 88
CCOC(=O)c1cnc(=S)[nH]c1C(F)(F)F | 101 | -25 | 88 | 90
Cc1ccc(NC(=O)c2sc3nc(-c4cc5ccccc5oc4=O)[nH]c(=O)c3c2C)c(C)c1 | 25* | -9 | 82 | 90
Cc1ccccc1CN1CCN(c2ccccn2)CC1 | 100 | -16 | 122 | 88
c1cncc(N=c2scc(-c3cccs3)n2C2CCCC2)c1 | nt | -6 | 57 | 11
COc1cc(Cl)c(C)cc1NC(=O)c1cc2ccc3cccnc3c2[nH]1 | 96 | nt | 82 | 88
CCCCn1c(C2CC2)nc2cc(S(=O)(=O)N3CCOCC3)ccc21 | nt | -1 | 96 | 89
COc1ccc(Br)cc1C(=O)Nc1ccc(-c2nc3cc(Cl)ccc3o2)cc1 | 107 | -22 | 104 | 90
CCOc1ccc(NC(=O)CCn2c(-c3ccc(F)cc3)cc(C(C)=O)c2C)cc1 | 102 | nt | 120 | 86
CC(=O)Nc1ccc(S(=O)(=O)N2CCC(n3c(C)nc4cccnc43)CC2)cc1 | 105 | nt | 89 | 98
COc1cccc(-n2cc(C(=O)N3CCN(C(=O)c4ccco4)CC3)c3ccccc3c2=O)c1 | 106 | -7 | 92 | 84
Cc1cccc(NC(=O)Cn2nc(-c3ccccc3)c3cc(Cl)ccc32)c1C | 101 | 20 | nt | nt
Cc1cc2c(cc1S(=O)(=O)CCC(=O)N1CCCCC1C)OCC(=O)N2 (stereo not given) | 102 | nt | 103 | 87
c1ccc(-c2noc(-c3ccc(NC4CCCCC4)nn3)n2)cc1 | 99 | -5 | nt | nt
CNC(=O)C(C)n1c(C)c2cnn(-c3ccccc3)c(=O)c2c1C (stereo not given) | 109 | nt | 92 | 93
O=C(O)COCC(=O)NC1CCN(Cc2ccccc2)CC1 | 103 | 3 | 111 | 98
CN(CCc1noc(COc2ccc(Cl)cc2)n1)C(=O)NCC1CCCO1 (stereo not given) | 106 | -18 | nt | nt
Oc1c(C(c2ccccc2F)N2CCN(Cc3ccccc3)CC2)sc2nc(-c3ccco3)nn12 (stereo not given) | 104 | nt | 108 | 98
CCN1C(=O)C(Cc2nc3ccccc3c(=O)n2-c2ccc(OC)cc2)c2ccccc21 (stereo not given) | 96 | -37 | 104 | 80
COc1ccc(OC)c(C(=O)c2c(N)c(-c3nc(-c4ccc5c(c4)OCO5)cs3)c3ccccn23)c1 | 125 | -20 | nt | nt
C/C(N)=C(/C#N)C(=O)CSc1cc(Cl)ccc1Cl | nt | 4 | 86 | 96
COc1ccc(CCNCc2c(C(=O)O)c(C)n(Cc3cccc(C)c3)c2C)cc1OC | 107 | -27 | 93 | 86
O=C(NC1CCCCC1)c1cc2occc2c(Nc2ccc(Cl)cc2)n1 | 104 | -13 | nt | nt
Cc1cc(C)n2nc(SCC(=O)NCCC3=CCCCC3)nc2n1 | 107 | 1 | 112 | 94
O=C(Nc1ccc2oc(-c3ccncc3)nc2c1)c1ccccc1Cl | 109 | -42 | 109 | 82
Cc1cc(-c2cc(S(=O)(=O)NC3CCCCC3)c(C)s2)on1 | 102 | -24 | nt | nt
O=C(O)CCN1C(=O)Cc2ccccc2C1=O | nt | 104 | 97 | 93
O=C(Nc1cccc(Br)c1)c1cc(-c2ccc3c(c2)OCCO3)on1 | 99 | -10 | 88 | 77
COc1cccc(/C=C2/C(=O)NC(=O)N(c3cccc(Br)c3)C2=O)c1O | 118 | -20 | nt | nt
CCOc1ccc2nc(SCc3cc(=O)oc4cc(O)ccc34)[nH]c2c1 | nt | -44 | 87 | 49
O=C(O)Cn1c(P(=O)(O)c2ccccc2)nc2ccccc21 | nt | -34 | 102 | 84
NS(=O)(=O)c1ccc(CNC2=NCCCCC2)cc1 | nt | -6 | 93 | 88
Cc1cc(C)n(CCC(=O)O)n1 | 104 | nt | 99 | 92
COc1ccc(NS(=O)(=O)c2ccc3oc(=O)c4ncn(C)c4c3c2)cc1Cl | 98 | 4 | nt | nt
COc1ccc(Cn2c(SCc3ccc(C(=O)NC4CCCC4)cc3)nc3cccnc32)cc1 | 100 | nt | 100 | 87
O=C(c1cc(=O)c2ccccc2o1)N1CCN(S(=O)(=O)/C=C/c2ccccc2)CC1 | nt | 6 | 89 | 94
COc1ccc2[nH]c3c(=O)n(CC(=O)N(C)Cc4ccccc4)c(=S)[nH]c3c2c1 | 99 | nt | 102 | 85
O=S(=O)(Cc1ccccc1)Nn1cnnc1 | 103 | nt | 105 | 88
COc1ccc(-c2cc(C(=O)N3CCCC3c3ccc(Cl)cc3)no2)cc1 (stereo not given) | 105 | -30 | nt | nt
COc1ccc(C(=O)Oc2ccc(C3NC(=O)c4c(sc5c4CCN(C)C5)N3)cc2OC)cc1 (stereo not given) | 210 | -50 | 87 | 93
Cc1ccc(-c2noc(-c3ccccc3C)n2)cc1 | 103 | 3 | 117 | 90

3 entries already listed, arranged by their value in GIV-Gai inh, high to low.
mol | GIV-Gai inh
COc1ccc(-c2cc(C(=O)N3CCCC3c3ccc(Cl)cc3)no2)cc1 (stereo not given) | 105
O=S(=O)(Cc1ccccc1)Nn1cnnc1 | 103
COc1ccc(Cn2c(SCc3ccc(C(=O)NC4CCCC4)cc3)nc3cccnc32)cc1 | 100
